# RVFV N-RNA inh: inhibitors of Rift Valley Fever Virus nucleocapsid-RNA interaction. % bound, % (test concentration not listed). 20,000 tested, 0.1% active. RVFV N-RNA binding, fluorescence polarization; stronger effect = lower value;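 active = between 0 and 58% in either replicate with normal brightness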;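 note: 100 nL library stock added to about 12 µL; 100% = protein and probe without compound and 0% = probe alone; numbers are from one replicate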
# Target sequence (P21700 whole entry, looked up): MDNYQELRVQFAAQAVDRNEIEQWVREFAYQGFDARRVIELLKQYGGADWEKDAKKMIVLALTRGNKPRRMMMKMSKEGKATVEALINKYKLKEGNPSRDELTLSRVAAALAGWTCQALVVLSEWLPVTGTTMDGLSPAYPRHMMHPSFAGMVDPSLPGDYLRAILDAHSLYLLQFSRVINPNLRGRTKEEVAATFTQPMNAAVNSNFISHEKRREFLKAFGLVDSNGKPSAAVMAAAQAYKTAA
# An asterisk follows results filed as active; & = joins results of further samples. Only part of the results is shown; the hit share may differ from the screen's.
SMILES,RVFV N-RNA inh
CCNC(=S)N/N=C/c1cc(OC)c(OC)c(OC)c1,95.9
C(=N\C(/N=C/c1ccco1)c1ccco1)/c1ccco1,97.1
O=C(O)c1cccnc1C(=O)O,92.9
Cc1cc(NC(=O)CN2C(=O)CC(c3ccco3)Sc3ccccc32)no1 (centres undefined),94.9
CCN1C(=O)C2CC(C)=C(C)CC2C1=O (centres undefined),82.6
Cc1noc(C(F)(F)F)c1-c1nc(-c2ccccc2)no1,97.5
O=C1c2ccccc2C(=O)N1O,92.8
CCN(C#N)c1nc(N(C)C)nc(N2CCOCC2)n1,107.8
CCOC(=O)c1c(C)oc(-c2ccccc2)c1S(=O)(=O)N1CCN(c2ncc(C(F)(F)F)cc2Cl)CC1,90.8
O=CN1CCN(Cc2cccc(Cl)c2)CC1,99.6
CC(=O)NC(=S)Nc1ccccc1N1CCN(C(=O)c2ccccc2)CC1,102.8
Cc1ccc(O)c(NC(=O)c2ccc(Br)o2)c1,101.4
O=C(CC(NCCN1CCOCC1)C(=O)O)Nc1ccc2ccccc2c1 (centres undefined),89.7
CCn1c(=O)c2cc(S(=O)(=O)NC3CCCCC3)ccc2n(CC)c1=O,107.6
CCC(=O)Nc1sc2c(c1C(=O)NC)CCC2,104.4
CCOC(=O)c1cccc(NC(=O)Cn2nnc(-c3ccc(C)cc3)n2)c1,99.8
CSc1ccc2c(c1)N(CCC1CCCCN1C)c1ccccc1S2 (centres undefined),87.8&102.3&91.0
O=C(CSc1ccccc1)Nc1ccccc1F,93.3
COC(=O)[C@H]1[C@H]2C[C@H]3c4[nH]c5ccccc5c4CCN3C[C@H]2CC[C@@H]1O,92.2
COc1cccc(NC(=O)C23CCC(C)(C(=O)C2)C3(C)C)c1 (centres undefined),95.6
O=C(Nc1cccc(Cl)c1)c1cc(-c2ccccc2)on1,104.3
Cc1nc(COc2ccc(C(C)(C)C)cc2)[nH]c(=O)c1Cl,92.6
NC(=O)CNCCC(c1ccccc1)c1ccccc1,98.0
Nc1nccc(-c2ccc3noc(-c4ccc(Cl)cc4)c3c2)n1,105.2
O=C(Nc1cc(OCC(F)(F)F)cc(OCC(F)(F)C(F)F)c1)c1ccco1,97.5
# Other records follow.
SMILES,RVFV N-RNA inh
CCOc1cc(CNn2cnnc2)ccc1OCC(=O)NC1CCCCC1,95.8
CCC1CCCCN1C(=O)CSc1nc2c(c(=O)n1C)SC(C)C2 (centres undefined),95.6
CNCC(=O)c1ccc(O)c(O)c1,102.6
CCC(C)(C)O,99.7
CCOC(=O)c1ccsc1NC(=O)/C=C/c1cccs1,97.2
O=c1c(-c2ccc(Oc3ccccc3)cc2)[n+]([O-])c2ccccc2n1O,86.7
CCOC(=O)/C(C#N)=C/Nc1ccn(C)n1,95.9
CNC[C@H](O)[C@@H](O)[C@H](O)[C@H](O)CO,98.0
CC1=CC2(O)OCCN(Cc3ccccc3)C2=CC1=O (centres undefined),97.2
CC(=O)Nc1ccc(CN2CCOCC2)cc1,103.4
Cc1cccn2cc(-c3cccc(S(=O)(=O)N(C)C)c3)nc12,100.5
O=C(NCC1CCCO1)C1CCCN(S(=O)(=O)c2ccc(Br)cc2)C1 (centres undefined),86.8
O=c1ccc(=O)n(Cc2ccccc2)[nH]1,102.9
NC(=O)c1cnn2c(C(F)(F)F)cc(-c3ccccc3)nc12,95.6
CCc1ccc2[nH]c(=O)c(Cc3ccccc3)c(O)c2c1,98.2
[O-]/[N+](=C\c1ccccc1)C1CCCCC1/[N+]([O-])=C/c1ccccc1 (centres undefined),97.7
COC(=O)c1ccccc1N1C(=N)SCC1=O,93.8
Cc1ccccc1OCC(=O)Nc1sc2c(c1C(=O)NCc1ccco1)CCCC2,99.0
Cc1cc(C)n(-c2ncc(S(=O)(=O)C(C)(C)C)c(N)n2)n1,97.3
CC(C)CNC(=S)NCc1ccco1,95.0
Cc1[nH]c2ccccc2c1C(=O)CN(C)C1CCCCC1,99.1
COc1ccccc1CNCCCCCCNCCCCCCCCNCCCCCCNCc1ccccc1OC,96.1
Cn1c(NCCN(CCO)CCCc2ccc([N+](=O)[O-])cc2)cc(=O)n(C)c1=O,102.2&98.1
CCOc1ccc(-n2ccnc(SCC(N)=O)c2=O)cc1,105.2
Clc1ccccc1C(c1ccccc1)(c1ccccc1)n1ccnc1,96.0&95.3
# Continued.
SMILES,RVFV N-RNA inh
Cc1ccccc1OC(C)C(=O)NC1CCCC1 (centres undefined),94.2
Cc1ccc(Cc2c(C)nc(N3CCCC3)[nH]c2=O)cc1,93.9
O=C(O)CCC1NCC(Cn2c3ccccc3c3ccccc32)OC1=O (centres undefined),93.1
CC(C)c1c(C(=O)Nc2ccccc2)c(-c2ccccc2)c(-c2ccc(F)cc2)n1CC[C@@H](O)C[C@@H](O)CC(=O)O,95.0
CC(C)c1ccc(NC(=O)CSc2ncnc(N)n2)cc1,98.5
NC(=O)NC(=O)CC1S/C(=N/N=C/c2ccccc2)NC1=O (centres undefined),98.3
CCOC(=O)c1nc(Cn2cc(I)cn2)no1,102.4
C[C@@H](CN1CCC(Cc2ccccc2)CC1)[C@@H](O)c1ccc(O)cc1,85.6
CCC1CCCCN1C(=O)/C=C/c1ccc(C)cc1 (centres undefined),94.5
CC(C(=O)N1CCCCC1)N1c2cccc3cccc(c23)S1(=O)=O (centres undefined),106.2
CCOC(=O)C1CCN(/C=C2/C(=O)NC(=O)N(c3cccc(C)c3C)C2=O)CC1,92.2
COc1ccc(Cl)cc1NC(=O)c1ocnc1C,91.3
OCCn1c2ccccc2c2cc(Cl)ccc21,106.8
N#Cc1c(-c2c(O)[nH]c3ccccc23)c2c(-c3ccncc3)[nH]nc2oc1=N,95.9
CC(=O)N/N=C/c1ccc(Sc2ccc(C)cc2)o1,101.1
Nc1ccc2ncnc(NCCc3ccc(Oc4ccccc4)cc3)c2c1,105.3
CCC(=O)OCC(=O)[C@@]1(OC(=O)CC)[C@H](C)CC2C3C([C@@H](O)C[C@@]21C)[C@@]1(C)C=CC(=O)C=C1C[C@H]3Cl (some centres undefined),103.3
O=C(Cn1cnc2c(oc3ccccc32)c1=O)c1ccccc1,100.8
Cc1cccc(NC(=O)C(=S)N2CCOCC2)c1C,83.2
CCN(CC)CC(=O)Nc1ccc(S(N)(=O)=O)cc1,93.4
CNC(=S)N1CCN(c2ccc(Cl)c(Cl)c2)CC1,93.7
COC(=O)c1ccc(CSc2nnnn2Cc2ccccc2)cc1,90.9
O=c1cc(C(F)(F)F)[nH]c(=S)[nH]1,94.0
COc1cc2ncnc(Nc3ccccc3)c2cc1OC,86.6
O=C1C2C(C(=O)C3C1C1C=CC3C13CC3)C1C=CC2C12CC2 (centres undefined),91.7
# Next section
SMILES,RVFV N-RNA inh
N#CC1(C#N)C2C=CC(C2)C1(C#N)C#N,91.4
CC(C)NC(=O)NC(=O)c1ccccc1,97.3
COc1ccc(NC(=O)c2ccccc2OC)cc1OC,108.5
COC(=O)c1ccc(S(=O)(=O)NNc2c(Cl)cncc2Cl)n1C,98.9
Cc1ccc(-c2noc(CN(C(=O)CCc3ccccc3)C(C)C)n2)cc1,102.1
CCCc1cc(=O)[nH]c(/N=C(\N)Nc2cc(Cl)ccc2OC)n1,93.1
CC(=O)N[C@@H](CCC(N)=O)C(=O)O,99.4
c1ccc(CN2CCN(Cc3ccc4c(c3)OCO4)CC2)cc1,94.8
CC(=O)N1CC(=O)N(O)C1c1ccc(Cl)cc1Cl (centres undefined),100.2
CCOC(=O)COc1cccc2c(=O)n(CC(=O)NCc3ccc4c(c3)OCO4)ccc12,91.3
CC1C(O)CCC1(C(=O)O)c1ccccc1 (centres undefined),98.0
O=C(CN1C(=O)c2ccccc2C1=O)OCc1ccccc1,100.9
Cc1ccc(C)c(CN2CCN(Cc3ccccc3)CC2)c1,100.9
Cc1nn(Cc2nnc(SCc3cccc(C(F)(F)F)c3)o2)c(C)c1Br,91.5
Cc1coc2cc3oc(=O)c(CC(=O)O)c(C)c3cc12,96.6
CSc1ccc(C(=O)c2[nH]c(=O)[nH]c2C)cc1,110.9
C=C(C)CSc1n[nH]c2nc3c(c(=O)n12)C(C)(CC)Cc1ccccc1-3 (centres undefined),99.0
COc1cccc(S(=O)(=O)N2CCOCC2)c1,88.9
COc1ccc(CN2CCc3ccccc3C2)cc1,98.0
CCNS(=O)(=O)c1ccc(F)cc1,107.9
CCS(=O)(=O)NCCc1csc(-c2ccc(OC)c(OC)c2)n1,91.6
Cc1ccc2nc(Cl)sc2c1,89.7
CN(C)CCP(=O)(c1ccccc1)c1ccccc1,92.5
CC12CN3CC(C)(CN(C1)C3(C)C)C2O (centres undefined),96.5
Cn1c(Sc2ncc(C#N)c(N)n2)nnc1-c1ccncc1,94.4
# Remaining list, next part.
SMILES,RVFV N-RNA inh
O=C(O)c1cc(N2C(=O)C3C4c5ccccc5C(c5ccccc54)C3C2=O)ccc1N1CCOCC1 (centres undefined),97.4
Cc1ccc(N(Cc2ccco2)C(=O)COc2ccc3oc(=O)cc(C)c3c2)cc1,102.3
C=CCn1cnc2c(nnn2-c2ccc(OC)c(OC)c2)c1=O,98.7
Nc1nncn1C(=O)c1ccc(Br)cc1,90.3
CCc1nc(SCC#N)c(C#N)cc1C,110.0
O=S(=O)(NCC(c1cccnc1)N1CCN(c2ccccc2F)CC1)c1cccs1 (centres undefined),104.5
CCCNC(=O)c1ccc(Cl)c(S(=O)(=O)Nc2ccccc2)c1,90.7
CC(O)CN(CCN(CC(C)O)CC(C)O)CC(C)O (centres undefined),102.8
O=CN(c1ccccc1)c1ccccc1,97.4
Cc1nnc2sc(-c3cccc(NC(=O)c4cccc(F)c4)c3)nn12,94.3
CCCN1C(=O)C2C(c3ccc(O)cc3)NN(Cc3ccccc3)C2C1=O (centres undefined),100.5
CCCn1ccc2c(OCC(=O)c3ccccc3)cccc2c1=O,93.7
CNC(=O)CCCN1C(=O)c2ccccc2C1=O,91.5
CC(C)C(=O)Nc1nc(NC(=O)C(C)C)nc(-c2ccccc2C(F)(F)F)n1,93.0
CC(Oc1ccccc1)C(=O)Nc1ccc(-c2nnc(-c3ccccc3)o2)cc1 (centres undefined),99.1
Fc1ccc(CN(C2=NCCN2)c2c(Cl)cccc2Cl)cc1,103.4
CCOc1cc(C)c(Cl)cc1S(=O)(=O)N1CCN(C)CC1,93.4
O=C(c1ccccc1O)N1CCN(c2ccccc2)CC1,94.5
O=C1OC(C(=O)NCCc2ccccc2)Cc2ccccc21 (centres undefined),95.7
O=C1NC(Cc2ccc(O)cc2)C(=O)N1C12CC3CC(CC(C3)C1)C2 (centres undefined),93.0
Cc1c(C(=O)NC(C)C)oc2ccccc12,106.3
NS(=O)(=O)c1ccc(CCN2C(=O)CSC2=S)cc1,94.0
COc1ccc(N(C(C)=O)S(=O)(=O)c2cc(OC)ccc2OC)cc1,96.6
Cc1ccc2nc(CC#N)[nH]c2c1,110.2
O=C(O)CCCc1ccc(N(CCCl)CCCl)cc1,99.2&99.2

# Structural class: those above with two or more sulfur atoms (6)
SMILES,RVFV N-RNA inh
CSc1ccc2c(c1)N(CCC1CCCCN1C)c1ccccc1S2 (centres undefined),87.8&102.3&91.0
CCC1CCCCN1C(=O)CSc1nc2c(c(=O)n1C)SC(C)C2 (centres undefined),95.6
CCOC(=O)c1ccsc1NC(=O)/C=C/c1cccs1,97.2
CCS(=O)(=O)NCCc1csc(-c2ccc(OC)c(OC)c2)n1,91.6
O=S(=O)(NCC(c1cccnc1)N1CCN(c2ccccc2F)CC1)c1cccs1 (centres undefined),104.5
NS(=O)(=O)c1ccc(CCN2C(=O)CSC2=S)cc1,94.0

# Fetched one by one from the entries so far:
SMILES,RVFV N-RNA inh
Cc1ccc(N(Cc2ccco2)C(=O)COc2ccc3oc(=O)cc(C)c3c2)cc1,102.3
COc1ccc(N(C(C)=O)S(=O)(=O)c2cc(OC)ccc2OC)cc1,96.6
CCOc1cc(C)c(Cl)cc1S(=O)(=O)N1CCN(C)CC1,93.4
O=C1OC(C(=O)NCCc2ccccc2)Cc2ccccc21 (centres undefined),95.7
CCc1nc(SCC#N)c(C#N)cc1C,110.0
CCCNC(=O)c1ccc(Cl)c(S(=O)(=O)Nc2ccccc2)c1,90.7

# Going on with the list:
SMILES,RVFV N-RNA inh
Clc1cccc(Cl)c1NC1=NCCN1,97.4&81.7&95.2
Cc1c(C(=O)NCCCN2CCOCC2)cc(C(C)(C)C)n1-c1ccccc1,86.5
Cc1ccc(SC(C)C(=O)Nc2ncn[nH]2)cc1 (centres undefined),93.4
CC1=NN(c2ccccc2)C(=O)C1C(=O)c1ccc(F)cc1 (centres undefined),94.9
COc1cccc(-c2nc(SCN3C(=O)c4ccccc4C3=O)[nH]c(=O)c2C#N)c1,96.0
Cc1noc(-c2ccc(Cl)cc2)c1NC(=O)NN1CCCCC1,95.4
COc1cccc(NC(=O)c2ccnc(C(C)(C)C)c2)c1,93.8
COCC(=O)/C=C1\Sc2ccccc2N1C,100.5
CCCCNc1ncnc2nc[nH]c12,97.1
O=S(=O)(CCN1CCN(c2ccccn2)CC1)c1ccc(F)cc1,98.7
Clc1ccc(C2=NN(Cc3ccccc3)CC2)s1,92.3
O=C(c1cccs1)N1CCN(c2ccccn2)CC1,93.0
O=C1c2ccncc2C(=O)N1CNc1ccccc1,89.1
N#C/C(=C\c1ccc(O)c(O)c1)C(=O)Nc1ccccc1,94.5
COc1ccc(C(=O)c2c(C)n(CCN3CCOCC3)c3ccccc23)cc1,93.7
CCOC(=O)c1c(NC(=S)NCCn2cc(Br)cn2)sc2c1CCCCC2,93.4
COCC(C)NC(=O)c1ccc(NS(=O)(=O)c2ccccc2)cc1 (centres undefined),97.0
CCN(CC)Cn1[nH]c(=O)ccc1=O,87.1
O=C(N/N=C/c1cccs1)c1ccc(N2CCCC2=O)cc1,89.5
Cc1ccc(C(=O)NC(C(C)C)C(C)C)cc1,104.0
c1ccc(Nc2nc3nonc3nc2N2CCOCC2)cc1,86.5
O=C1c2ccccc2C(=O)c2c1nc1n2CCCC1,88.3
CN(C)C(=O)Oc1cccc([N+](C)(C)C)c1,108.8&93.6
O=C(O)c1ccc(OCc2occc2C(=O)O)cc1,99.5
Cc1cccc(C(=O)Nc2ccccc2C(=O)N2CCOCC2)c1,98.8
Cn1/c(=N/N=C/c2ccc(OCC(N)=O)cc2)sc2ccccc21,102.7
CCOC(=O)c1cc(Sc2n[nH]c(-c3ccccc3)n2)cc(C(=O)OCC)n1,101.8
N#Cc1ccc(CSc2cnc3ccccc3n2)cc1,99.0
COc1cc(/C=C/C(=O)Nc2nnc(C)s2)cc(OC)c1OC,111.7
Cc1cc(NC(=O)c2cnn3c(C(F)(F)F)cc(-c4ccccc4)nc23)no1,96.0

# Source: PubChem BioAssay
